Mtb MbtI inh: MbtI salicylate synthase inhibitors, primary screen, biochemical, fluorescence intensity; purified MbtI enzyme, fluorescence intensity read-out; inhibition, %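 (about 17 µg/mL by stock and volumes)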; actives 0.89% (n = 100,000); AID 493033, 2011;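 active = above 50% in both replicates, above 80% if mildly self-fluorescent; inactive = the rest, strongly fluorescent compounds included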;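 also: 0% = mean of negative and 100% = mean of positive controls; one replicate is shown; some compounds called inactive have numbers as strong as hits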
Target sequence (P9WFX0 whole entry, looked up): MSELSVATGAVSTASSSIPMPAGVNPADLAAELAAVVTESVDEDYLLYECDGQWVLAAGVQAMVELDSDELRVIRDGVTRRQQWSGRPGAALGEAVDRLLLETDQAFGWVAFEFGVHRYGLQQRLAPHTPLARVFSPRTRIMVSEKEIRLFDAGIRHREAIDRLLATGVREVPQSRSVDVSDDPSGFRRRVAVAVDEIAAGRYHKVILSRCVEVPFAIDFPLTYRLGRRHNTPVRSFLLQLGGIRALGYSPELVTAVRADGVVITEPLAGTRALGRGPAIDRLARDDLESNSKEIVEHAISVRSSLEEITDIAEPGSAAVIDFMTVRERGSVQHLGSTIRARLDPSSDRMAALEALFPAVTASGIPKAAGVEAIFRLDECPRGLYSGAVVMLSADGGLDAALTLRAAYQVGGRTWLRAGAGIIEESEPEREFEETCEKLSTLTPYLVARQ
Mtb MenB inh: M. tuberculosis MenB inhibitors, primary screen, biochemical, absorbance. MenB enzyme assay, absorbance read-out; some hits fall short of the stated cut. inhibition, %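 (about 12 µg/mL by stock and volumes)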. actives 0.43% (n = 100,000). AID 540299, 2011;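 active = mean of two replicates above 30%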;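 also: 0% = no compound and 100% = wells with inactive enzyme; the first replicate is given; strong numbers were not always called active; inactives centre near -10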
PV pol inh: poliovirus RdRp elongation inhibitors, primary screen, biochemical, fluorescence polarization, total intensity | Genome polyprotein (Poliovirus type 1 (strain Mahoney)), P03300 | poliovirus polymerase elongation; active compounds read low | % elongation, % (compound at 16.7 µg/mL) | actives 0.66% (n = 150,000); in the data active = % elongation below about 90%; also: some results filed as inactive read as strong as hits
Target sequence (P03300 1749-2209 limits assumed): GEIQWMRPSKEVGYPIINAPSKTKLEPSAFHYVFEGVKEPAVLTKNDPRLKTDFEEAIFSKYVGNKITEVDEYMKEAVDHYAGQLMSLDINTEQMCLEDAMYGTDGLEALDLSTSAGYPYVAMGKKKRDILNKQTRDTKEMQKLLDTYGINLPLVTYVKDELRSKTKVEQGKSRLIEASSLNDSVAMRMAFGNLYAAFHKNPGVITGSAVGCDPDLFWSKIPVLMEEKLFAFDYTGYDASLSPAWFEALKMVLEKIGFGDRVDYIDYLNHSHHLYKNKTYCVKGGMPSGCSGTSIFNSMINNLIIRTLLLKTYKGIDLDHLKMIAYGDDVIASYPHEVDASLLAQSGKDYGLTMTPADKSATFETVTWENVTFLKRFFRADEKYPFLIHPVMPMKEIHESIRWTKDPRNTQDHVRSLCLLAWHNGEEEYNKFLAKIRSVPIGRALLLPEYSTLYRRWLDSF
PV pol inh intensity: recorded beside PV pol inh, whose call it bears; % elongation; measured here: total intensity read-out; formula for this scale not given here;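 total fluorescence in place of polarization; lower means less elongation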
* = called active by the depositor; i = inactive; nt = no result given; & = joins results of further samples.

SMILES	Mtb MbtI inh	Mtb MenB inh	PV pol inh	PV pol inh intensity
O=P(CN(Cc1cccs1)CC1CCCO1)(c1ccccc1)c1ccccc1 (configuration not stated)	3.0	0.9	100.0	102.0
Cc1cc(-n2c(C)cc(C(=O)CSc3ccc(S(=O)(=O)N(C)C)cn3)c2C)no1	30.6	-18.8	99.0	97.0
CC1CCc2c(C(=O)Nc3nccs3)csc2C1 (configuration not stated)	-2.0	nt	101.0	98.0
Cc1cccc(NC(=O)CN2N=NC3C(=O)N(c4cccc(Cl)c4)C(=O)C32)c1C (configuration not stated)	2.0	-5.7	99.0	103.0
CN1CCC(N(C)C(=O)/C(=C/c2ccc(Cl)cc2)c2ccc(F)cc2)CC1	11.3	nt	102.0	105.0
Cc1cccn2cc(-c3cccc(NS(=O)(=O)c4ccc(Cl)cc4)c3)nc12	103.3	-10.3	101.0	105.0
O=C(COC(=O)c1cccc2ccccc12)Nc1ccccc1Cl	40.4	nt	102.0	104.0
O=C1COc2ccccc2N1Cc1ccc(OC(F)(F)F)cc1	-5.1	32.5	100.0	101.0
CN(C)S(=O)(=O)c1ccc(Nc2nc3ccccc3n3nnnc23)cc1	10.4	-16.6	102.0	101.0
Cc1nn(-c2ccccc2)c2nc(-c3cccs3)cc(C(=O)OCC(=O)N3CCCC3)c12	-7.0	-13.0	102.0	110.0
O=C(O)CCc1ccc(-c2cccs2)n1-c1ccccc1C(F)(F)F	5.2	-15.5	102.0	112.0
CCOc1ccc(Br)cc1C1C(C(=O)OC)=C(N)Oc2cc(N(C)C)ccc21 (configuration not stated)	-14.0	-15.1	103.0	109.0
CSc1nnc(C)c(=O)n1COC(=O)COc1ccccc1	10.8	-3.5	106.0	100.0
CC1(C)C2CCC1(C)C(NC(=O)CC[N+](C)(C)Cc1ccccc1)C2 (configuration not stated)	-2.8	4.6	104.0	108.0
O=C(Oc1ccccc1)C1C2CCCCC21 (configuration not stated)	-16.1	-2.6	102.0	100.0
Cc1ccccc1-c1nnc2sc(NC(=O)C(C)C)nn12	-12.7	-7.3	99.0	98.0
Cc1ccc2n1CCn1cc(-c3ccccc3)cc1-2	5.8	-31.5	115.0	163.0
Cc1ccnc(N2C(=O)OC(C)(C)C2(C)O)c1 (configuration not stated)	nt	-13.8	101.0	99.0
N#Cc1ccc(NC(=O)NCCc2c[nH]c3ccccc23)cc1	-1.9	3.7	101.0	102.0
O=C(Nc1ccc(F)cc1)c1cc(N2CCN(c3ccc(F)cc3)CC2)nc2ccccc12	-1.9	-17.4	103.0	107.0
COc1cc2c(cc1OC)C1C(C(=O)NC3CCCC(C)C3C)c3ccccc3C(=O)N1CC2 (configuration not stated)	-33.0	-7.1	101.0	98.0
Cc1nnc(Sc2nc(Sc3nnc(C)s3)nc(N3CCCCC3)n2)s1	6.9	-4.0	101.0	103.0
Cc1ncc(CNC(=O)N(CCCl)N=O)c(N)n1	-5.3	0.7	99.0	102.0
N#C/C(=C\N1CCC(C(F)(F)F)CC1)S(=O)(=O)c1ccccc1	-6.8	-13.5	102.0	104.0
CCc1nc2ccccc2n1CCc1ccccc1	-6.5	-3.9	99.0	102.0

New compounds follow:
SMILES	Mtb MbtI inh	Mtb MenB inh	PV pol inh	PV pol inh intensity
Cc1cc(C)n(CCCC(=O)O)c(=O)n1	4.3	-36.3	101.0	102.0
NC(=O)Nc1nc2ccccc2[nH]c1=O	17.7	-76.3	101.0	105.0
O=C(O)/C=C/C(=O)c1ccc(F)cc1	74.0*	nt	43.0*	33.0*
CCOc1ccc(NC(=O)CC2C(=O)N(Cc3ccco3)C(=S)N2CCNC(C)=O)cc1 (configuration not stated)	34.7	-1.1	100.0	102.0
CCOC(=O)COc1ccc2c(c1)c(C(=O)OCC)c(C)n2CC	2.5	-17.9	105.0	101.0
Cc1nc(Cc2nnc(SCc3cc4ccccc4nc3Cl)o2)cs1	8.8	-1.6	107.0	115.0
CC(C)(C)OC(=O)N1CCC2(CC1)C(C#N)=C(N)OC1=C2C(=O)CCC1	-2.9	-14.9	100.0	103.0
S=C(NCCc1ccccc1)NNc1nc2ccccc2o1	32.5	9.2	37.0*	47.0*
O=C(Nc1ccc(N2CCOCC2)cc1)Nc1cccc(C(F)(F)F)c1	-12.6	-0.9	102.0	106.0
CN1CCC(N(C)C(=O)CCCc2nc3ccccc3s2)CC1	0.0	-0.7	103.0	104.0
COc1cccc(-c2cc(C(=O)NCc3cccnc3)on2)c1	-13.2	1.1	102.0	105.0
NS(=O)(=O)c1cc(C(=O)NCCc2ccc3c(c2)OCCO3)ccc1Cl	-1.8	-30.0	nt	nt
C=CCNC(=O)Cn1c(-c2ccc(F)cc2)nc2ccccc21	88.4	-24.9	100.0	102.0
N#Cc1ccc(COC(=O)Cc2noc3ccccc23)cc1	13.2	4.2	nt	nt
NC(=O)COC(=O)c1cc2nc(Nc3ccccc3)sc2s1	106.0	-36.2	137.0	143.0
CCOc1ccc(S(=O)(=O)N2CCC(C(=O)N/N=C/c3cc(C)n(CC(C)C)c3C)CC2)cc1	-4.8	-8.2	96.0	103.0
CC(=O)Nc1ccc(C2SCC(=O)N2Cc2ccc3c(c2)OCO3)cc1 (configuration not stated)	2.0	-84.9	103.0	102.0
CCCC(=O)Nc1cccc(-c2nc3ccccc3o2)c1	11.2	-14.8	100.0	104.0
Cc1ccc(-n2nc3c(N4CCCC(C(=O)NCCCN5CCCC5=O)C4)nnc(C)c3c2C)cc1 (configuration not stated)	-20.8	1.3	102.0	104.0
CN(CC(=O)Nc1cccnc1)S(=O)(=O)c1ccc(Br)cc1	-17.9	-51.8	102.0	103.0
Cc1cc(=O)oc2cc(NC(=O)C3CCCC3)ccc12	i	-1.9	103.0	100.0
CCNc1nc(-c2cc3ccccc3o2)cs1	9.9	0.1	105.0	110.0
Cn1cccc1Cc1nnc(SCC(=O)N2CCc3ccccc32)n1CCc1ccccc1	-5.7	-43.6	101.0	105.0
C=CCNc1sc(C(=O)c2ccc(Cl)cc2)c(N)c1C#N	nt	-13.2	101.0	106.0
Cc1nc2cc(NC(=O)NC(C)(C)C)ccc2n1C	59.9	-15.7	105.0	106.0

The list continues:
SMILES	Mtb MbtI inh	Mtb MenB inh	PV pol inh	PV pol inh intensity
Cc1cccc(-c2noc(-c3ccccc3)n2)c1	-0.8	5.5	101.0	101.0
Cn1c(=O)n(C)c2cc(/C=C(\C#N)C(N)=C(C#N)C#N)ccc21	11.4	-355.1	101.0	101.0
O=c1c(Cl)c(O)c2ccccc2n1Cc1ccccc1	-1.5	13.4	94.0	100.0
Cc1ccc(CS(=O)(=O)CCC(=O)NC2CC2)cc1	-3.0	2.9	99.0	107.0
CCc1ccc(-c2nc(CS(=O)CC(=O)NCc3ccccc3)c(C)o2)cc1 (configuration not stated)	-5.7	12.6	98.0	102.0
Cc1cc(-n2c(C)cc(C(=O)COc3ccc4ccc(=O)oc4c3)c2C)no1	17.1	1.8	103.0	109.0
CC(Cc1ccc(O)cc1)NCC(O)c1cc(O)cc(O)c1 (configuration not stated)	-3.5&-3.9	-6.9&1.4	100.0&97.0	100.0&100.0
NC(=O)c1sc(-c2ccsc2)cc1NC(=O)/C=C/c1ccsc1	15.1	-43.1	106.0	106.0
O=C(CCSc1nnnn1-c1ccccc1)Nc1ccc2c(c1)OCO2	-6.2	-18.7	101.0	112.0
CN(C)C(=O)COC(=O)c1ccc2ccccc2n1	7.7	-17.2	109.0	112.0
CC(C)(C)OC(=O)N1CCN(C(=O)Nc2ccc(C(=O)O)cc2)CC1	6.3	8.9	101.0	101.0
CCCn1c(=NC(=O)C(C)(C)C)sc2cc3c(cc21)OCO3	-5.0	-6.4	100.0	99.0
Cn1c(N)c(C(=O)Cn2cc(S(=O)(=O)N3CCCC3)ccc2=O)c(=O)n(C)c1=O	0.8	-4.9	101.0	104.0
CC(Sc1nnnn1-c1ccccc1)C(=O)NCCC1=CCCCC1 (configuration not stated)	-10.2	1.0	100.0	106.0
CCC(=O)Nn1cnc2c(c1=O)C1(CCCCC1)Cc1ccccc1-2	0.6	-43.9	102.0	101.0
CSc1ncc(C(=O)Nc2ccnn2Cc2ccccn2)n1-c1ccc(F)cc1	3.0	-28.7	110.0	108.0
CN1C(=O)C(=Cc2cc3c(cc2Cl)OCO3)C(=O)N(C)C1=S	78.0	-45.8	98.0	98.0
CCOC(=O)N1CCC(NC(=O)CCc2c(C)nc3c(c(C)nn3-c3ccc(C)cc3)c2C)CC1	24.3	-18.1	101.0	102.0
CC1(C)OC(=O)C(=C2C3C4CC5C3C(=C3C(=O)OC(C)(C)OC3=O)C3C2C4C53)C(=O)O1 (configuration not stated)	16.6	-27.7	98.0	99.0
O=C(NCc1ccccc1)C1CCCN(C(=O)N2CCOc3ccccc32)C1 (configuration not stated)	4.5	-2.7	101.0	102.0
Cc1nc2scc(-c3cccs3)c2c(=S)[nH]1	19.5	-13.4	99.0	101.0
Cc1cccn2cc(CNC(=O)c3ccccc3)nc12	-18.3	7.2	103.0	106.0
CCN(CC)C(=O)CSc1nc(C)cc(C)n1	-6.2	-10.6	100.0	104.0
COC(=O)c1cc(-c2cccs2)on1	i	-11.2	99.0	100.0
OC(CNC1CCCCC1)CN1c2ccccc2Sc2ccccc21 (configuration not stated)	6.4	-7.7	103.0	105.0

(cont.)
SMILES	Mtb MbtI inh	Mtb MenB inh	PV pol inh	PV pol inh intensity
O=C(NN1CC(=O)N(C2CCCC2)C1=O)c1cccc2ncccc12	-1.5	-4.2	104.0	107.0
COCC(C)Nc1ncnc2c1c(-c1ccccc1)cn2-c1ccc(C)c(Cl)c1 (configuration not stated)	3.3	-13.1	103.0	107.0
CC(C)NC(=S)n1cc(C(=O)c2cc(Cl)cc(Cl)c2O)cn1	-6.3	nt	104.0	106.0
Cc1ccccc1C(=O)Nc1ccc(-c2nc3ccccc3o2)cc1	67.1	1.9	100.0	104.0
Fc1cccc(F)c1CNCC1NCCc2ccccc21 (configuration not stated)	nt	-3.8	101.0	103.0
O=C(CNC(=O)C1CCCCC1)OCc1cc(-c2ccccc2)on1	-5.2	0.2	102.0	106.0
CC(C)(C)NC(=O)C(C)(C)Oc1ccc(Cl)cc1	-1.8	-25.4	98.0	106.0
Nc1cc(Cl)ccc1C(=O)OCC(=O)c1ccc(F)cc1	-104.8	-40.6	102.0	109.0
O=C(c1ccccc1)N1CCN(c2nc(-c3ccccc3)c3cc(Br)ccc3n2)CC1	nt	-15.7	103.0	111.0
C=CCNC(=O)CN1CCC(n2nnc3cc(C(F)(F)F)ccc32)CC1	-1.8	15.4	102.0	103.0
O=C(NC1CCCC1)c1ccc(CSCc2cccc(Cl)c2)o1	-0.6	-16.1	101.0	100.0
Cc1ccc(-c2csc(N3C(=O)CN=C3SCc3ccc(Cl)cc3)n2)cc1	-2.3	-12.3	103.0	103.0
C=CCNc1nc(N)c(C(=O)c2ccc(OC)cc2)s1	-0.1	-23.1	104.0	106.0
COc1ccc(C2OC(=O)CC2C(=O)NCc2ccc(F)cc2)cc1OC (configuration not stated)	-3.0	-24.1	101.0	103.0
N#CCSc1nc(-c2ccccc2)cc(=O)[nH]1	7.3	-8.1	105.0	109.0
Cc1ccc(/C=C2\SC(=S)N(CCCCC(=O)O)C2=O)o1	33.2	-107.1	112.0	107.0
O=C(c1noc2c1CCCCC2)N1CCCc2ccccc21	-4.5	-38.0	106.0	99.0
O=c1[nH]nc(NCc2nc3ncccc3[nH]2)c2ccccc12	1.6	-17.9	101.0	111.0
Cn1c(=O)c(/C(N)=N/O)cn(-c2ccccc2)c1=O	-7.0	11.2	100.0	106.0
CS(=O)(=O)N1Cc2ccccc2CC1C(=O)OCC(=O)N1CCc2ccccc21 (configuration not stated)	-3.7	-29.1	101.0	109.0
Cn1c2ccccc2c2nnc(SCC(=O)c3ccc(Cl)cc3)nc21	-8.6	-31.7	101.0	102.0
CC(C)N(C)c1ncnc2sc3c(c12)CCC3	-9.0	nt	103.0	103.0
FC(F)(F)c1cccc(NN=C2CCSCC2)n1	-7.4	-20.1	102.0	99.0
CCCC(=O)Nc1ccc(C(=O)Cn2nnc(-c3cccc(F)c3)n2)cc1	7.2	-34.1	105.0	109.0

As a short view, part of the list above.
SMILES	Mtb MbtI inh	Mtb MenB inh	PV pol inh	PV pol inh intensity
O=C(NN1CC(=O)N(C2CCCC2)C1=O)c1cccc2ncccc12	-1.5	-4.2	104.0	107.0
COCC(C)Nc1ncnc2c1c(-c1ccccc1)cn2-c1ccc(C)c(Cl)c1 (configuration not stated)	3.3	-13.1	103.0	107.0
CC(C)NC(=S)n1cc(C(=O)c2cc(Cl)cc(Cl)c2O)cn1	-6.3	nt	104.0	106.0
Cc1ccccc1C(=O)Nc1ccc(-c2nc3ccccc3o2)cc1	67.1	1.9	100.0	104.0
Fc1cccc(F)c1CNCC1NCCc2ccccc21 (configuration not stated)	nt	-3.8	101.0	103.0
O=C(CNC(=O)C1CCCCC1)OCc1cc(-c2ccccc2)on1	-5.2	0.2	102.0	106.0
CC(C)(C)NC(=O)C(C)(C)Oc1ccc(Cl)cc1	-1.8	-25.4	98.0	106.0
Nc1cc(Cl)ccc1C(=O)OCC(=O)c1ccc(F)cc1	-104.8	-40.6	102.0	109.0
O=C(c1ccccc1)N1CCN(c2nc(-c3ccccc3)c3cc(Br)ccc3n2)CC1	nt	-15.7	103.0	111.0
C=CCNC(=O)CN1CCC(n2nnc3cc(C(F)(F)F)ccc32)CC1	-1.8	15.4	102.0	103.0
O=C(NC1CCCC1)c1ccc(CSCc2cccc(Cl)c2)o1	-0.6	-16.1	101.0	100.0
Cc1ccc(-c2csc(N3C(=O)CN=C3SCc3ccc(Cl)cc3)n2)cc1	-2.3	-12.3	103.0	103.0

Screening data (PubChem)
